Source: PubChem BioAssay
PINK1 expr mod – modulators of PINK1 expression. PINK1 immunofluorescence, high-content cytometry, 24 h. Potency, µM (doses to about 76.6 µM), for inactives: at the highest dose activation (PINK1 increase), usual class: activators. actives 0.2% (n = 410,000); active = well fitted activation curve with a large enough effect; inconclusive = small, poorly fitted or top-dose-only effect; inactive = flat fitted curve, though single readings scatter; cell line not stated here;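 also: potency is read from the fitted curve at half-maximal effect; % of control where 0% means no effect; nearly all actives have a fitted effect of over 65% in size; a mitochondrial uncoupler was the plate control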
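PINK1 protein, normally rapidly degraded, was detected by immunofluorescence after 24 hour compound treatment of a stable cell line. Titration data (5 concentrations) came from laser-scanning cytometry, with CCCP-treated wells as controls.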
Menin-MLL FL inh – menin-MLL binding inhibition, fluorescein peptide. 290,000 tested, under 10 active. Fluorescence polarization, fluorescein-MLL peptide displacement from menin. AID 1766. FP activity change, % at 61.4 µM; inconclusive = falling polarisation curve, or a change in total fluorescence; inactive = total fluorescence flat and polarisation flat or rising; no compound was filed as active; the % refers to the polarisation; negative = inhibition;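 also: % of control where 0% means no effect; inhibitors lower the polarisation; unlabelled MLL peptide was the positive control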
TRPML1 blocker – blocks the human TRPML1 channel | AID 624415 | activity change, negative = inhibition, % (test concentration not listed) | TRPML1-inducible cells, Ca2+ dye fluorescence, FDSS; active compounds read low; inhibition of EC80 agonist-evoked calcium signal | Q9GZU1 | actives 0.02% (n = 390,000); in the data active means activity change below about -50%; inconclusive means about -30% to -50%; inactive means above about -30%;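 also: stimulus is agonist 54-4 at its EC80 concentration; % is scaled to controls: 0 for no effect and ±100 for the full control effect; compound concentration not given in the record; the text of the record puts the active cut at -80%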
Target sequence (Q9GZU1 whole entry, looked up): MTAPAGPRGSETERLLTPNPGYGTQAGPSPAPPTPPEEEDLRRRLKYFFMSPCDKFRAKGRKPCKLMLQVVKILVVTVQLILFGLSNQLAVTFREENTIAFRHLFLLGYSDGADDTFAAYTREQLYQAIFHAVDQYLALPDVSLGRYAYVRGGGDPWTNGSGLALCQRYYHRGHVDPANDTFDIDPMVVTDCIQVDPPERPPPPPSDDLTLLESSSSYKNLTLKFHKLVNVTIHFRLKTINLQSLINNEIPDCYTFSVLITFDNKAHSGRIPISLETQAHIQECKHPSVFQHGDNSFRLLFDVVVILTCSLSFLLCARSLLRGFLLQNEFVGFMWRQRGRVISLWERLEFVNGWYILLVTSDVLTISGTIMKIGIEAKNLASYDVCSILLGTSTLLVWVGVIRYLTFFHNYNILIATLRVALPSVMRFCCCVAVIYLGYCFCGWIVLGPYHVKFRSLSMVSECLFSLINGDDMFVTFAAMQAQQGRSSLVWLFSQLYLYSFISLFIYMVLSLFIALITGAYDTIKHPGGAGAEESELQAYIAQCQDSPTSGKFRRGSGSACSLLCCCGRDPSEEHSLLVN
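Calcium fluorescence in TRPML1-DL cells induced overnight with Tet: a 110 s read after compound pin addition, then a 110 s antagonist read after challenge with 54-4 at 4 uM final (EC80).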
ClpP mod – qHTS Assay for Activators of ClpP. Potency, µM (top dose mostly 57.5 µM), inactives show at the highest dose activity change, negative = active. actives 1.9% (n = 340,000). purified B. subtilis ClpP, FRET peptide cleavage, 20 min; active = well fitted falling curve with a large enough effect; inconclusive = small, poorly fitted or top-dose-only effect; inactive = no such curve, though single readings can be large or run the other way; also: potency is read from the fitted curve at half-maximal effect; the source files actives as falling curves though it sought activators and does not explain the sign; nearly all actives have a fitted effect of over 65% in size; many hits overshoot -100%
Target sequence (P80244 whole entry, looked up): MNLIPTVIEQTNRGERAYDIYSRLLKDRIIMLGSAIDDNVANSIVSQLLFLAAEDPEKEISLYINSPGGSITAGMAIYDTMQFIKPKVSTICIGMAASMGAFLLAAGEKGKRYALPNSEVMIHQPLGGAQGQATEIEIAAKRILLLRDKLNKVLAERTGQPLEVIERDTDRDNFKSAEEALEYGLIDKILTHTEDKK
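FRET quenching reversal measured ClpP activation: 10 microg/mL B. subtilis ClpP at pH 8 with the FRET-FV decapeptide, read at 430 nm after 320 nm excitation. The 20-min minus 0-min signal was scaled between DMSO/no-enzyme wells and ADEP (5.8 microM final).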
Sfp inh – Sfp phosphopantetheinyl transferase inhibition; Q9F4F7; Biochemical Sfp PPTase activity, qHTS; Potency, µM, inactives show max response, negative = inhibition, most hits filed as inhibitors; actives 3.5% (n = 310,000); active = well fitted inhibition curve with a large enough effect; inconclusive = small, poorly fitted or top-dose-only effect, or another doubt; inactive = no such curve, though single readings can be large or run the other way;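 also: the enzyme is Sfp with the accession as filed and its product quenches rhodamine fluorescence; potency is read from the fitted curve at half-maximal effect; 0% = enzyme reaction without inhibitor and -100% = no enzyme wells; top concentration of the series not given in the record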
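Step 1, compound plus 15 nM Sfp-PPTase, 15 min, room temperature. Step 2, add rhodamine-CoA (5 uM) and BHQ-2-YbbR (12.5 uM). Step 3, read 525/598 nm fluorescence at 0 and 30 min.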
TRPV1 potentiator – human TRPV1 potentiation; Q8NER1; TRPV1-expressing cells, Fluo-8 calcium influx, capsaicin EC20 potentiation; host cell line not named in the record; control for the full effect not named in the record; potentiation, % at 8.33 µM; actives 0.02% (n = 320,000); AID 540277; active means potentiation above 80%; inconclusive means 30% to 80%; inactive means below 30%; also: 0% is about no effect
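TRPV1-expressing cells were cultured overnight at 35.5C and loaded with Fluo-8 calcium dye for 40 to 90 min at room temperature. After a 10 s baseline, compound was added and calcium influx was read kinetically for 3 min (ex 480/em 520 nm).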
TRPML1 ag – activates the human TRPML1 channel. TRPML1-expressing cells, Ca2+ dye fluorescence, FDSS; host cell line not named in the record; reference of the full effect not given here. activation, % (test concentration not listed). actives 0.12% (n = 410,000); in the data active = activation above about 50%; inconclusive = about 30% to 50%; inactive = below about 30%; also: 0% is about no effect; the text of the record puts the active cut at 80%
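Tetracycline-induced TRPML1-DL cells are seeded and incubated overnight before loading with a no-wash Ca2+ dye and quencher. Agonist activity is taken from the 110 s fluorescence read following compound pin-transfer on an FDSS, before EC80 54-4 challenge.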
Numbers without * were called inactive; ? = inconclusive; nt = not tested or not shown; [ ] = dose if it differs, or a comment. Rows are unselected; 4.4% or so of the library scored in one or more.

SMILES | PINK1 expr mod | Menin-MLL FL inh | TRPML1 blocker | ClpP mod | Sfp inh | TRPV1 potentiator | TRPML1 ag
Cc1ccccc1-n1ncc(C(C)NC(=O)c2ccco2)c1C (centres undefined) | 2.0% | -2.7 | -16.8 | nt | 13.3% | -1.2 | 0.7
CCc1nc2ccc(C(=O)N3CCN(c4cccc(C(F)(F)F)c4)CC3)cc2nc1CC | 6.0% | nt | -2.1 | 1.6% | -2.4% | 11.3 | -0.7
Cc1ccc([N+](=O)[O-])c(OCCCN2CCCCCC2)c1 | 0.9% | -0.9 | -5.0 | 1.1% | ? | 3.7 | -0.1
CCOc1ccc2nc(SCC(=O)NC(=O)NCc3ccco3)[nH]c2c1 | -0.7% | -0.8 | 7.2 | 1.0% | -6.4% | -3.3 | 0.2
NS(=O)(=O)c1ccc(S(=O)(=O)N(CCc2ccccc2)Cc2ccccn2)cc1 | -0.5% | -0.8 | 32.9 | -2.9% | 15.4% | -8.1 | -0.2
COc1ccc(-n2nc(C(=O)NCC(=O)N3CCN(C)CC3)c3ccccc3c2=O)cc1OC | -6.8% | 3.9 | -8.2 | 0.3% | 14.3% | -32.1 | -1.0
Cn1c(=O)cc(OCC(=O)NCCCN2CCN(c3ccccc3F)CC2)c2ccccc21 | -1.2%[38.3 µM] | 0.1 | 0.0 | 0.9% | 11.9% | 16.1 | -0.9
CCc1ccccc1N(CC(=O)N1CCN(c2ccccc2F)CC1)S(C)(=O)=O | -1.7% | 2.1 | -8.8 | 0.1% | 0.3% | 3.1 | 1.2
CCOC(=O)C1CCCN(C(=O)CN(c2ccc(OC)cc2)S(=O)(=O)c2c(C)noc2C)C1 (centres undefined) | 6.1% | 0.7 | 11.7 | -4.5% | 8.7% | nt | 0.8
Cc1ccn(CCC(=O)N2c3ccccc3CC2C)n1 (centres undefined) | 0.9% | 0.9 | -0.4 | 0.6% | 7.8% | -10.7 | 0.4
N/C(=N\OC(=O)c1ccc2ccccc2c1)c1ccncc1 | 3.5% | 4.1 | 0.1 | -0.4% | 11.5% | -15.0 | 0.4
COc1ccc(C(=O)COC(=O)C2CCCN2C(=O)C23CC4CC(CC(C4)C2)C3)cc1 (centres undefined) | -1.9% | -0.8 | -10.3 | 1.2% | 2.2% | 0.5 | 1.6
Cc1cc(C(=O)NC(C)C2CC2)c(Cl)cc1Cl (centres undefined) | -1.4% | -0.6 | 8.6 | -3.4% | 4.2% | -6.0 | 0.0
CCc1nnc(NC(=O)c2ccc(-c3ccccc3F)o2)s1 | 3.5% | -1.3 | ? | nt | 3.9% | -16.1 | 0.1
O=C1c2cc(S(=O)(=O)N(CCO)CCO)ccc2-c2ccc(S(=O)(=O)N(CCO)CCO)cc21 | 1.7% | nt | 2.2 | 0.6% | nt | nt | -0.7
Cc1onc(-c2ccccc2)c1C(=O)NCCCc1ccccc1 | 1.7% | nt | -10.4 | 1.3% | nt | -20.7 | 0.3
C[N+]1(CC(=O)NNc2c3ccccc3nc3ccccc23)CCOCC1 | nt | 3.4 | nt | nt | 3.1% | 6.7 | nt
CNC(=O)c1ccc(NC(=O)/C=C/c2cccc(F)c2)cc1 | 2.2% | -1.9 | -19.3 | 31.9% | 9.0% | -14.1 | 1.2
CN(C)/C(=N\O)c1c(Cl)cccc1Cl | -0.5% | 7.2 | 20.1 | nt | 17.6% | 4.5 | 1.7
CC12CCC(=O)N1C(C(=O)NNC(=O)c1ccccc1)CS2 (centres undefined) | -0.8% | nt | 10.6 | 1.0% | nt | 10.3 | 0.1
Cc1ccc(S(=O)(=O)Nc2ccc(Cl)cn2)cc1C | -0.2% | 1.4 | -24.3 | nt | 16.0% | -7.3 | 0.0
Cc1ccc(-c2nnc3c4ccccc4c(C)nn23)cc1S(=O)(=O)N1CCN(CCO)CC1 | -1.6% | 6.8 | -10.0 | ? | 35.4% | 9.4 | -0.5
Clc1ccccc1Cn1nnc2ccccc21 | 0.4% | 1.8 | 4.7 | -1.0% | 8.9% | 1.0 | 1.1
Cc1c(-c2ccccc2)nc(N)c(C#N)c1-c1ccco1 | 6.4% | ? | 3.8 | 34.1% | 14.1µM* | -15.7 | 0.7
CCOc1ccc(NC(=S)N2CCC(NC(=O)c3ccco3)CC2)cc1 | 0.7% | 2.1 | 7.8 | nt | 9.5% | 3.1 | 0.9
COc1ccccc1OCCCOc1c(C)cc(C)cc1Br | ? | 1.4 | -15.7 | -1.3% | -3.2% | 2.2 | 0.4
Cc1ccc(OCC(=O)O)c(-n2nc3ccccc3n2)c1 | -0.3% | 4.5 | 6.2 | -21.9% | 23.9% | 7.9 | -0.3
O=C(NCCNC(=O)c1ccc(-c2cccc(Cl)c2)o1)c1cnccn1 | 2.8% | nt | 19.6 | 3.0% | nt | nt | -0.2
Oc1ccc2ccccc2c1CNc1ccccn1 | 3.5% | -1.9 | nt | 9.8% | -4.8% | -10.6 | nt
CCC1OC(c2ccc([N+](=O)[O-])cc2)=Nc2ccccc21 (centres undefined) | 2.3% | 0.2 | 24.4 | 2.6% | -5.2% | 18.9 | 1.0

2 of the compounds above, with two lines to a compound.
Every second line gives: PINK1 expr mod	Menin-MLL FL inh	TRPML1 blocker	ClpP mod	Sfp inh	TRPV1 potentiator	TRPML1 ag
Clc1ccccc1Cn1nnc2ccccc21
  0.4%	1.8	4.7	-1.0%	8.9%	1.0	1.1
Cc1c(-c2ccccc2)nc(N)c(C#N)c1-c1ccco1
  6.4%	?	3.8	34.1%	14.1µM*	-15.7	0.7

New compounds follow.
SMILES | PINK1 expr mod | Menin-MLL FL inh | TRPML1 blocker | ClpP mod | Sfp inh | TRPV1 potentiator | TRPML1 ag
CCCOn1c(OCC(C)C)nc2ccccc2c1=O | 4.2% | 0.1 | -1.2 | -0.6% | -6.1% | -26.6 | -0.5
COc1ccccc1C(=O)Nc1cccc(NC(=O)c2ccccc2C)c1 | 0.3% | 1.6 | 0.2 | nt | 7.4% | 19.5 | 1.9
O=C1OCCC1Sc1nnc2c(n1)[nH]c1ccccc12 (centres undefined) | 0.7% | nt | nt | -1.9% | nt | nt | -0.5
CCCCN(Cc1cc2ccccc2[nH]c1=O)C(=O)c1cccc(Cl)c1 | -1.7% | nt | -0.4 | ? | nt | nt | -0.3
CC1CCCCN1CCNC(=O)c1ccc2c(=O)n(CCc3ccccc3)c(=O)[nH]c2c1 (centres undefined) | 2.8% | 5.4 | -4.2 | ? | 4.1% | -15.8 | 1.3
O=C(CSc1ncnc2nc[nH]c12)N1CCN(c2ccccc2)CC1 | nt | -3.8 | -0.9 | -1.4% | -17.2% | -8.1 | -0.2
CCOC(=O)c1c(NC(=O)CC2SC(N)=NC2=O)sc2c1CCC(C)C2 (centres undefined) | -1.6% | -2.1 | ? | -12.2% | -26.5% | -8.4 | 0.4
O=C(c1cc(C(=O)c2ccco2)cc(C(=O)c2ccco2)c1)c1ccco1 | 3.1% | 0.8 | 6.3 | nt | 7.9% | -10.9 | 0.7
CN1C(=O)/C(=C/c2ccccc2Cl)Sc2ccc(C(=O)NCc3cccnc3)cc21 | -1.0% | -5.4 | 15.1 | nt | -13.9% | -5.2 | 1.5
CCCCNC(=O)c1[nH]c(C)c(C(C)=O)c1C | 1.2% | -1.1 | -1.6 | nt | 19.0% | -9.2 | 0.1
O=C(Nc1ccc(O)cc1)N1CCOCC1 | -0.6% | 4.3 | -6.7 | 1.2% | 5.0% | -23.8 | -0.8
Clc1cccc(Cc2c(-c3ccccc3)nc3c4ccccc4ccn23)c1 | 0.6% | nt | -0.9 | ? | nt | nt | -0.3
COc1cccc(OCc2cc(C(=O)N(Cc3ccccc3)CC3CC3)no2)c1 | -0.5% | 1.1 | 7.5 | -0.4% | 9.4% | -4.5 | 1.4
CCOc1ccccc1NC(=O)CCCCCN1C(=O)[C@@H]2Cc3ccccc3CN2C1=O | -1.1% | nt | 13.0 | 2.1% | 2.4% | ? | 0.9
O=C(c1cc(C(F)(F)F)cc(C(F)(F)F)c1)N1CCC2(CCCN(c3ncccn3)C2)CC1 | 0.6% | -0.7 | nt | nt | 8.2% | nt | nt
CCCCSc1nc2sc3c(c2c(=O)n1-c1ccccc1)CCN(C)C3 | 1.8% | 24.2 | 9.3 | 4.1% | -17.9% | 20.3 | 1.3
O=C(CCc1nc2ccccc2c(=O)[nH]1)NC1CCN(Cc2ccccc2)CC1 | -1.5% | -0.6 | -3.7 | 0.9% | -1.7% | 13.6 | 0.5
CC(=O)Cn1c(=O)c2c(nc3n2CCCN3Cc2ccccc2)n(C)c1=O | -1.4% | 0.0 | -5.0 | -0.1% | 14.8% | 3.5 | 1.0
COc1ccc(NC(=O)c2cc(C3CCCCN3C(=O)C3CC3)on2)c(C)c1 (centres undefined) | 0.1% | nt | nt | -3.1% | nt | nt | -0.3
O=C(NC(=S)Nc1ncccn1)c1ccc(Cl)cc1Cl | 0.0% | -0.1 | 14.9 | 1.2% | -9.5% | 24.2 | 0.0
COc1ccc(S(=O)(=O)N2CCN(C(=O)N(C)C)C2C)cc1 (centres undefined) | -1.2% | 0.2 | 3.7 | nt | 3.8% | 2.4 | 0.6
CC1CCN(S(=O)(=O)c2ccc3c(c2)N(CC(=O)NC(C)C)C(=O)CS3)CC1 | 1.0% | nt | 4.7 | -1.6% | nt | nt | 0.1
CCOC(=O)Cn1c(=O)n(C2CCCCC2)c2nc(-c3ccc(CC)cc3)nc(C(N)=O)c21 | -0.6% | nt | -18.3 | ? | nt | nt | 2.1
CCOc1ccc(C2CC(c3ccc(CC)cc3)Nc3nc(N)nn32)cc1 (centres undefined) | 5.5% | -0.7 | 26.8 | 2.7% | -13.2% | 12.7 | 0.1
O=C(N/N=C/c1cccnc1)c1cccc(NC(=O)c2ccc(Cl)cc2)c1 | 4.3% | -4.5 | 5.5 | nt | -4.2% | -0.4 | -0.4
CCCCN1C(=N)N([C@@H](C)CN2CCC[C@H]2CN2C(N)=NC[C@@H]2Cc2ccccc2)C[C@H]1Cc1ccccc1 | 1.2% | nt | -8.4 | 1.9% | nt | nt | -0.2
Cc1noc(C)c1NC(=O)N(C)C[C@@H]1OCc2cnnn2CCCC(=O)N([C@@H](C)CO)C[C@H]1C | -1.4% | nt | -4.4 | 0.6% | nt | nt | -0.3
NC1=NC2CS(=O)(=O)CC2S1 (centres undefined) | 10.3% | 5.3 | -13.4 | -2.2% | ? | -6.3 | -0.1
COc1cc(-c2coc3c(C(=O)NCc4ccc(N(C)C)cc4)cccc23)ccc1O | 0.6% | nt | nt | 1.6% | nt | nt | -1.0
CCOc1cc2c(cc1OCC)C(CC(=O)O)N(C(=O)Nc1ccccc1C(F)(F)F)CC2 (centres undefined) | 0.0% | nt | -28.0 | -0.2% | nt | nt | 0.8
